From PubChem BioAssay
GALR2 ag = agonists of human galanin receptor 2 (GALR2); O43603; GALR2-expressing cells, agonist activation read-out; activation, %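 (tested at 5 µM)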; 140,000 compounds, 0.48% hits;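 active = above mean plus 3 SD of all compounds, about 5% in these data, not always enough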;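 also: 0% = vehicle buffer wells and 100% = reference agonist at full effect; tested in CHO reporter cells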
Insulin prom inh = TRM-6 insulin promoter activity inhibition; 130,000 compounds, 0.9% hits; AID 1273; inhibition, % at 2 µM; TRM-6 cells (human fetal islet line), insulin promoter-eGFP reporter, imaging; reporter expression induced with tamoxifen;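 active = inhibition above the mean plus 3 SD, with well images judged a real hit on visual review, cut at about 60% in these data, passing the limit was not always enough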
PKD1 kinase inh = PKD1 (human) kinase inhibition; 200,000 compounds, 0.056% hits; inhibition, %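 (about 10 µM by stock and volumes)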; PKD1 kinase fluorescence polarization assay; Q15139;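 active = inhibition of 50% or more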;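 also: controls were vehicle for no effect and a reference inhibitor for full effect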
Target sequence (Q15139 whole entry, looked up): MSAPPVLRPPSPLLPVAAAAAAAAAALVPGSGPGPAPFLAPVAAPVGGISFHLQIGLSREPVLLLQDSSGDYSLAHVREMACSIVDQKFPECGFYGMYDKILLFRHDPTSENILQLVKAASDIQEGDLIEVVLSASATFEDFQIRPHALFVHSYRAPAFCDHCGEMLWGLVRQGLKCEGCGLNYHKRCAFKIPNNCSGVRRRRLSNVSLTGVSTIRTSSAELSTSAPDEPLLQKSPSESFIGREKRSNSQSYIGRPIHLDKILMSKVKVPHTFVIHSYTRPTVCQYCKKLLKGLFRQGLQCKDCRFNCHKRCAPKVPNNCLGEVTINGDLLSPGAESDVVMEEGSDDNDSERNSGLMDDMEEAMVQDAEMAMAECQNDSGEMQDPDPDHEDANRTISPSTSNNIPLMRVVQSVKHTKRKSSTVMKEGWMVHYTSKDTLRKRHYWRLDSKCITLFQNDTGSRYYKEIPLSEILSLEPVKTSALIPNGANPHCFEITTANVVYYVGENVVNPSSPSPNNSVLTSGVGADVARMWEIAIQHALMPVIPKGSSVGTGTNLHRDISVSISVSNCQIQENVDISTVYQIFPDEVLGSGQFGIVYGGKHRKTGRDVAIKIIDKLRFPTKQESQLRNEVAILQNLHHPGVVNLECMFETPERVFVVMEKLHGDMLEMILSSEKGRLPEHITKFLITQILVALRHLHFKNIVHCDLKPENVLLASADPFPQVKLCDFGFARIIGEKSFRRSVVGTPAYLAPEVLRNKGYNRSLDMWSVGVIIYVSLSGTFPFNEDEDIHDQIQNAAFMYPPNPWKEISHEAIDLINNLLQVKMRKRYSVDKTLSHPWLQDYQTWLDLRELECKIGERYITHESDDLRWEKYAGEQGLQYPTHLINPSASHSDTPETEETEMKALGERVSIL
RGS16-Gao = regulators of human RGS16-Galphao interaction; O15492+P09471; bead-based flow cytometry RGS16-Galphao binding, fluorescence; actives lie on both sides; binding response (% of control), % at 10 µM; 220,000 compounds, 0.38% hits;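 active = below 25% or above 175%, edge rows of some plates excepted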;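 also: Galphao activated by GDP with aluminum fluoride before binding; 100% = wells without compound and 0% = beads without RGS; some results beyond the cut were filed as inactive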
HSV augment = increases HSV replication in cells; HSV replication augmentation in cells, fold increase; maximum fold increase; 220,000 compounds, 0.005% hits; AID 1956;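 active = peak rise of 1.5-fold or more in the series; tested in PC3 cells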;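 also: first round at 10 µM; read as green reporter fluorescence; hits show the peak of a series up to 25 µM; 1 = signal of infected wells without compound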
Insulin prom inh cell count = further read-out of Insulin prom inh, marked with its call; normalized cell count, %; measured here: cell count, toxicity; reference of the scale not given here;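 cells exposed to compound for 48 h; stained nuclei by imaging scaled within each plate; lower means fewer cells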
HSV augment primary fold = second read-out of HSV augment, no call of its own (marks repeat the call); fold increase; compound at 10 µM; measured here: primary screen fold increase 10 uM; tested in PC3 cells;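 GFP signal in the first replicate; 1 = infected wells without compound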
An asterisk follows results filed as active; i = inactive; · = not tested or not shown.

entry	Molecule	GALR2 ag	Insulin prom inh	Insulin prom inh cell count	PKD1 kinase inh	RGS16-Gao	HSV augment	HSV augment primary fold
1	Cc1cc(C)c2[nH]c(=O)c(CN(Cc3ccc4c(c3)OCO4)Cc3nnnn3C3CCCC3)cc2c1	0.9	·	·	0.3	99.8	i	0.89
2	Cn1ccc(C(=O)N2CCCc3ccccc32)n1	-1.4	·	·	6.1	93.7	i	0.89
3	CS(=O)Cc1cc(Sc2ccccc2)nc(-c2cccnc2)n1 (stereo not drawn)	·	-54.5	162.7	-5.0	112.8	i	0.85
4	CC(CC(=O)Nc1cc([N+](=O)[O-])ccc1Cl)c1ccccc1 (stereo not drawn)	-1.7	0.0	127.5	9.4	87.3	i	0.84
5	Cc1ccc2[nH]c3c(c2c1)CN(C(=O)CN1CCSCC1)CC3	-1.4	-3.0	85.8	-8.0	122.1	i	1.26
6	COc1cc(OC)cc(C(=O)NC(=S)NCc2ccco2)c1	-1.9	6.7	75.6	5.6	101.7	i	1.05
7	O=C(NCc1ccc2c(c1)OCO2)C1COc2ccccc2O1 (stereo not drawn)	-0.5	-75.0	119.3	-0.3	102.5	i	0.93
8	CS(=O)(=O)c1ccc(C(=O)Nc2ccc(N3CCOCC3)cc2)c(Cl)c1	·	·	·	1.6	96.4	i	0.93
9	COc1ccc(S(=O)(=O)N2CCC(C(=O)N3CCCCCC3)CC2)cc1	-1.4	·	·	-9.3	103.4	i	0.89
10	COCCNC(=O)C(c1ccc(F)cc1)N(Cc1ccco1)C(=O)CCC(=O)Nc1nccs1 (stereo not drawn)	-1.8	·	·	-22.7	113.2	i	0.85
11	COC(=O)c1ccccc1NC(=O)CCCn1nc([N+](=O)[O-])c(Br)c1C	·	·	·	-4.2	105.4	i	1.03
12	COC(=O)CC1COc2ccccc2N1C(=O)c1cccc(Cl)c1 (stereo not drawn)	-0.2	0.0	76.0	-7.4	105.6	i	0.85
13	O=C(NCc1csc(-c2cccs2)n1)c1ccccc1	·	·	·	·	94.1	i	1.09
14	Cc1nn(-c2nc3ccccc3s2)c(N)c1-c1ccccc1	-2.8	-17.2	176.8	-4.8	97.8	i	0.99
15	O=C(NCCOC(=O)C1COc2ccccc2O1)C1COc2ccccc2O1 (stereo not drawn)	-1.2	37.5	143.8	31.6	119.1	i	0.74
16	CCOC(=O)N1CCC(NC(=O)CSCc2nc(-c3sccc3C)oc2C)CC1	-3.3	·	·	-5.3	102.9	i	1.09
17	O=C1c2ccccc2CN1CCSC(=S)N1CCOCC1	-1.6	31.2	101.2	-0.4	99.3	i	1.03
18	COc1cc(NC(=O)CS(=O)(=O)c2ccccc2)cc(OC)c1OC	-2.5	-381.2	69.3	-1.5	105.7	i	0.93
19	CCOc1ccc(N(C(C)C(=O)Nc2cccnc2)S(C)(=O)=O)cc1 (stereo not drawn)	·	·	·	11.7	97.7	i	0.98
20	O=C(Cn1c(=O)oc2ccccc21)NCc1ccco1	-2.1	·	·	0.4	100.2	i	0.89
21	O=C(N=Nc1c(O)n(Cc2ccccc2)c2ccccc12)c1ccncc1	·	·	·	·	98.2	i	0.98
22	CCOc1ccc(/C=C/C(=O)Nc2ccc(OC)cc2[N+](=O)[O-])cc1	-1.6	-13.8	123.4	-8.8	107.3	i	1.08
23	O=C(COc1cccc(-n2cnnn2)c1)N1CCOCC1	-2.6	-14.3	147.3	4.5	105.3	i	0.85
24	COc1ccc(-c2nc3ccccc3s2)cc1NC(C)=O	·	·	·	3.4	99.4	i	0.79
25	Cc1cc(OCC(O)CNC(C)(C)C)ccc1Cl (stereo not drawn)	·	-11.1	68.3	5.3	97.8	i	0.93
26	O=C(c1ccc([N+](=O)[O-])c(CS(=O)(=O)c2ccc(Cl)cc2)c1)N1CCCCC1	·	-118.2	116.0	-2.5	117.1	i	0.92
27	Cn1c(=O)c2c(nc(N/N=C3\CCCc4ccccc43)n2Cc2ccc(F)cc2)n(C)c1=O	-1.1	·	·	-2.0	60.3	i	0.98
28	O=C(OCC#CCSc1nc2ccccc2o1)c1ccco1	-2.4	-41.7	117.1	-4.1	126.2	i	0.8
29	NC(=O)CC(NC(=O)OCc1ccccc1)C(=O)O (stereo not drawn)	-2.2	·	·	-7.6	105.3	i	1.11
30	COc1cc(/C=N/NC(=S)Nc2cccc(C(=O)O)c2)ccc1O	0.0	·	·	4.8	105.8	i	0.93

An excerpt from above in order of the GALR2 ag value, smallest number first.
no.	Molecule	GALR2 ag	PKD1 kinase inh	RGS16-Gao	HSV augment	HSV augment primary fold
18	COc1cc(NC(=O)CS(=O)(=O)c2ccccc2)cc(OC)c1OC	-2.5	-1.5	105.7	i	0.93
9	COc1ccc(S(=O)(=O)N2CCC(C(=O)N3CCCCCC3)CC2)cc1	-1.4	-9.3	103.4	i	0.89
12	COC(=O)CC1COc2ccccc2N1C(=O)c1cccc(Cl)c1 (stereo not drawn)	-0.2	-7.4	105.6	i	0.85

(next part)
entry	Molecule	GALR2 ag	Insulin prom inh	Insulin prom inh cell count	PKD1 kinase inh	RGS16-Gao	HSV augment	HSV augment primary fold
31	Cc1cc(C)cc(-n2nnnc2SCC(=O)Nc2cccc(NC(=O)c3ccco3)c2)c1	-1.3	30.0	113.9	-4.3	99.1	i	1.07
32	COc1ccccc1CCc1nnc(CCC(=O)NC(C)Cc2cccc(C)n2)o1 (stereo not drawn)	·	·	·	·	91.9	i	0.79
33	CCC1C=C(c2ccccc2)C=CN=C1N(CC)CC (stereo not drawn)	-1.8	-16.7	87.9	2.1	135.0	i	0.97
34	CN(C(=S)Nc1ccccc1)c1ccccc1	-1.8	7.1	125.0	-1.3	90.9	i	0.95
35	CCNC(=S)N1CCN=C1Nc1nc(C)cc(C)n1	·	·	·	-6.8	102.0	i	1.08
36	N#Cc1c(-c2cccs2)cc(-c2cccnc2)nc1N	1.5	15.2	87.7	22.3	101.1	i	0.77
37	CC(/C=N/NC(=O)CSc1ccccn1)=C\c1ccc(C(C)C)cc1	0.0	-6.7	46.0	-3.7	75.6	i	0.99
38	CN(C)/C=C1\C(=O)N(c2ccc(Cl)cc2)CS1(=O)=O	-0.9	·	·	4.2	105.0	i	0.66
39	COc1c(C)cc(C(=O)C2CCCN(C(=O)c3ccc4cc[nH]c4c3)C2)cc1C (stereo not drawn)	·	·	·	6.7	109.8	i	1.13
40	CCNC(=S)N1CCN(S(=O)(=O)c2ccc(C)c(C)c2)CC1	·	-21.4	82.7	2.8	99.3	i	0.79
41	Cc1cc(C)c(S(C)(=O)=O)c(Oc2ccccc2C)n1	-2.2	·	·	-14.9	110.7	i	1.06
42	Cc1ccc(-n2ncc(C#N)c2/N=C/N2CCOCC2)cc1	-1.9	·	·	-10.6	94.9	i	0.93
43	CSC1=N/C(=C\C=C\c2cccs2)C(=O)S1	-1.2	34.2	62.5	-1.6	100.3	i	1.1
44	COc1cccc(NC(=O)COC(=O)c2c(-c3ccccc3)noc2C)c1	-3.7	-16.3	155.2	4.9	99.3	i	0.95
45	O=C(CSc1nc(Nc2ccccc2)nc(N2CCOCC2)n1)Nc1ccc([N+](=O)[O-])cc1	-0.9	5.6	106.4	-2.9	99.6	i	0.91
46	O=C(O)CN1C(=O)Nc2ccc(Br)cc2C1c1ccccc1 (stereo not drawn)	-0.6	17.9	122.4	10.7	92.5	i	1
47	CC(=O)/C(=C/c1ccc(N(C)C)cc1)C(=O)c1ccccc1	-0.4	-6.5	111.3	2.5	64.7	i	0.93
48	O=C(COc1ccccc1Br)c1ccc(O)cc1O	-1.0	·	·	-3.4	95.1	i	0.95
49	Cc1ccc([N+](=O)[O-])cc1NC(=O)c1ccoc1C	-0.3	-21.9	124.6	-8.7	106.8	i	0.89
50	CC1(C)CC(=O)C(C=NCC2CCCO2)=C(O)C1 (stereo not drawn)	-1.5	-108.3	69.6	6.4	100.7	i	0.79
51	CCCNc1ncccc1C(N)=O	-0.7	60.6*	67.4*	-6.2	100.9	i	0.77
52	CC(C)CCSc1cc(NCCO)c([N+](=O)[O-])c2nonc12	·	-50.0	164.6	-0.5	114.5	i	0.9
53	CCOc1ccccc1NC(=O)C1CCN(C(=O)Cc2ccccc2)CC1	·	14.3	129.9	0.4	107.4	i	0.92
54	COc1cc(NC(=O)CSc2nc3ccccc3cc2C)c(C(=O)O)cc1OC	-0.6	-63.2	154.9	0.6	104.3	i	0.91
55	C=C1CC2C=C(NC(C)=O)CC(C1)C2 (stereo not drawn)	-2.0	-16.7	142.9	-9.5	111.9	i	0.91
56	CC12CCC(C(=O)N(Cc3ccccc3)Cc3ccccc3)(OC1=O)C2(C)C (stereo not drawn)	-1.4	-30.8	77.4	-3.0	116.1	i	0.99
57	O=C(O)c1ccccc1C(=O)NCc1ccc(F)cc1	-2.3	-69.2	77.5	-0.9	102.8	i	1.14
58	C=CCc1cccc2cc(C(=O)NC3CCCC3)c(=O)oc12	·	·	·	-1.4	99.5	i	1.02
59	CC1CC(O)C(C)CN1 (stereo not drawn)	·	·	·	·	108.0	i	0.83
60	CCOC(=O)NC(=O)c1cn(Nc2ccccc2)c(=O)[nH]c1=O	·	·	·	·	100.5	i	0.96

Following part
entry	Molecule	GALR2 ag	Insulin prom inh	Insulin prom inh cell count	PKD1 kinase inh	RGS16-Gao	HSV augment	HSV augment primary fold
61	O=C(Nc1ccccc1)Nc1cc(Cl)cc(Cl)c1	-1.9	40.6	53.0	3.6	96.5	i	0.927
62	C=CCN1CC(C(=O)N2CCC(Cc3ccc(Cl)cc3)(C(=O)OCC)CC2)CC1=O (stereo not drawn)	·	·	·	·	99.3	i	0.87
63	O=C(Cn1c(=O)n(CCc2c[nH]c3ccccc23)c(=O)c2cccnc21)Nc1ccccc1F	-1.9	-2.4	120.2	-5.8	96.2	·	·
64	COCc1cc(C)nc(SCC(=O)NCc2ccco2)c1C#N	-1.6	-34.4	130.1	-3.3	107.0	i	0.81
65	COc1ccccc1C(=O)NC(C)C(c1cccs1)N1CCOCC1 (stereo not drawn)	-1.0	-81.2	78.5	-2.9	122.4	i	1.02
66	O=C(CSc1ncn[nH]1)Nc1nc(-c2cccc([N+](=O)[O-])c2)cs1	·	·	·	·	96.2	i	1
67	Cc1nnc(SCc2ccccc2)n(N)c1=O	-1.0	·	·	0.7	106.9	i	1.14
68	CCOc1ccc2nc3ccc4[nH]onc4c3c2c1	2.8	·	·	-1.7	·	i	1.16
69	CC1=C(C(=O)OC(C)C)C(c2ccncc2)n2ncnc2N1 (stereo not drawn)	-2.0	53.9	95.5	2.1	98.3	i	0.91
70	Cc1nc(CSc2ccc(Cl)cc2)cc(NCc2ccccc2)n1	-2.0	-20.8	97.5	-3.0	97.7	i	0.97
71	O=C(NCc1ccc2c(c1)OCO2)C1CCN(C(=O)Nc2ccc(Cl)cc2)CC1	-2.4	47.2	161.5	-8.4	99.1	i	0.92
72	COC(=O)CCC(=O)Nc1cccc2ccccc12	-2.7	-27.8	160.0	-3.7	100.0	i	0.957
73	COC(=O)Cc1[nH]nc2c1C1(C(=O)N(Cc3ccccc3)c3ccccc31)C(C#N)=C(N)O2 (stereo not drawn)	0.3	13.2	80.6	-14.1	100.4	i	1.01
74	O=C(CCS(=O)(=O)c1cccs1)Nc1ccc(C(=O)NC2CCCC2)cc1	·	·	·	5.5	101.6	i	0.91
75	COc1ccc(C2N(c3ccc(F)cc3)C(=O)C3CCCN32)cc1 (stereo not drawn)	-0.9	·	·	-7.4	105.2	i	0.94
76	COCc1nnc(NS(=O)(=O)c2ccc(C)cc2)s1	-2.7	45.5	109.9	-1.7	111.9	i	0.83
77	CN(C)c1ccc(CN(C)C2CCCCC2)cc1	-1.4	-13.5	66.3	12.6	99.3	i	0.93
78	COc1ccc(S(=O)(=O)N2CCCC(C(=O)N3CCCCCC3)C2)cc1 (stereo not drawn)	-1.1	-42.1	95.8	3.3	101.6	i	0.85
79	O=c1[nH]c(-c2ccccn2)nc2ccccc12	0.9	·	·	-3.8	96.4	i	0.9
80	Cc1ccc(C)c(NC(=S)NCCSc2ccc(Cl)cc2)c1	-0.8	-55.9	48.7	7.8	100.2	i	1.02
81	Cc1nn(-c2ccccc2)c(C)c1/C=C/C(=O)OCC(=O)NC1CCS(=O)(=O)C1 (stereo not drawn)	·	·	·	-4.3	97.5	i	1.11
82	COc1ccc(S(=O)(=O)N2CCC(C(=O)NCCC3=CCCCC3)CC2)cc1OC	-3.1	·	·	-14.8	72.0	i	0.99
83	CCSc1ncc(Cl)c(C(=O)Nc2cc(C)ccc2C)n1	·	·	·	·	99.9	i	1.02
84	COC/C=C/C1=CC2=CC(=O)C(C)(OC(=O)c3cnc4ccccc4n3)C(=O)C2=CN1CCN1CCOCC1 (stereo not drawn)	·	·	·	·	84.7	i	0.89
85	COc1cccc(NC(=S)NN=C2CCCCCC2)c1	·	·	·	-4.1	68.4	i	0.86
86	Cc1ccsc1/C=N/NC(=O)CN1CCN(S(=O)(=O)c2ccc(Br)cc2)CC1	0.8	·	·	-4.9	106.1	·	·
87	Cc1cccc(-n2c(SCc3ccc([N+](=O)[O-])cc3)nnc2-c2c[nH]c3ccccc23)c1	·	-5.9	85.9	-2.4	103.9	i	0.95
